# Compound activity: PubChem BioAssay, several laboratories
# UUG fidelity = alters start codon recognition fidelity in yeast; S. cerevisiae UUG-firefly luciferase reporter, luminescence/redox ratio; activity score, % at 18.7 µM; 0.13% of 350,000 active; AID 602363;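 active means replicate mean at a twofold rise or more, about +100% in these data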;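 further: firefly luciferase made from a UUG start codon reports start codon fidelity; reporter light over untreated wells divided by growth signal over untreated wells; some hits fall short of that in this replicate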
# Rce1 inh = yeast Ras-converting enzyme inhibition; Q03530; yeast membranes, quenched prenylated peptide cleavage fluorescence; calls only; 0.27% of 290,000 active; AID 2563;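 active means fall in fluorescence gain of 50% or more versus controls, with final raw signal at or below 3038400; inconclusive means same 50% fall but final raw signal above 3038400; inactive means fall in fluorescence gain under 50%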;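 further: plate controls were neutral control wells for no effect and wells lacking membranes for full effect; tested at 10 µM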
# Target sequence (Q03530 whole entry, looked up): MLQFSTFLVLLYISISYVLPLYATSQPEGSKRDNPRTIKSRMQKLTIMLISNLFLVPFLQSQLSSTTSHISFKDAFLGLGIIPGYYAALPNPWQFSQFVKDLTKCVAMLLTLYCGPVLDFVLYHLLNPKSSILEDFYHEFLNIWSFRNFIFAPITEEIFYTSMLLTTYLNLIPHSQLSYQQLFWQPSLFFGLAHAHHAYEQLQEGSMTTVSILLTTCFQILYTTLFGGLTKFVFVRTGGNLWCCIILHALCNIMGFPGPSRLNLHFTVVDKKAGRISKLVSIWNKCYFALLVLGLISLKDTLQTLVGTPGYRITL
# CSC inhib = cancer stem cell inhibition | AID 2717 | 1.1% of 300,000 active | inhibition, % at 7.5 µM | cancer stem cell-like cells viability, luminescence;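 active means mean at 75% or more and at least half the replicates too; inconclusive means mean and replicates disagree; tested in HMLE shEcad cells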;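 further: 0% = median of negative and 100% = median of positive control wells; the first replicate is given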
# eIF4H inh = inhibitors of RNA binding by human eIF4H; Q15056; eIF4H fluorescence polarization binding assay; inhibition, % at 35 µM; 0.94% of 290,000 active; AID 2012;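 active means 50% or more with normal probe brightness, or confirmed in later tests; inconclusive means above 50% with abnormal brightness, or retests that disagree; inactive means below 50% or failed in later tests; about a fifth of its hits are not listed in these tables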;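 further: calls also rest on retests at 20 µM and on dose response follow-up; 0% = protein and probe with vehicle and 100% = probe without protein; strong numbers were not always called active; many hits fall short of the cut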
# PABP polyA inh = blocks human PABP binding to poly(A) RNA | 1% of 290,000 active | P11940 | fluorescence polarization | inhibition, % at 35 µM;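 active means 50% or more with normal probe brightness, or confirmed in later tests; inconclusive means above 50% with abnormal brightness, or retests that disagree; inactive means below 50% or failed in later tests; about a fifth of its hits are not listed in these tables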;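 further: calls also rest on retests at 20 µM and on dose response follow-up; controls were probe without protein and protein plus probe with vehicle; some compounds called inactive have numbers as strong as hits; many hits fall short of the cut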
# MT1-MMP act inh = blocks activation of human MT1-MMP; P50281; HT1080 RFP-PRO-GFP cells, GFP/RFP ratio fluorescence, overnight; percent of plate control window, DMSO zero; GFP/RFP ratio change, % at 20 µM; 0.061% of 360,000 active;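 active means GFP/RFP ratio change of at least 30% with cell ATP level not reduced by more than half and red fluorescence within 50% of control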; further: strong numbers were not always called active
#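 Assay system: HT1080 cells carrying an RFP-PRO-GFP reporter | Dosing: Single dose of 20 µM compound, 1% DMSO final | Incubation: Cells overnight before dosing, compound overnight, 37 °C, 5% CO2 | Evaluation: GFP/RFP fluorescence ratio | Control set: DMSO and RFP-L50D-GFP cell wells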
# Env fusion inh = inhibitors of HIV Env-mediated cell fusion. inhibition, % at 12.3 µM. 1.1% of 360,000 active. HeLa-JRFL Env/CEM21 cell fusion, luciferase. AID 651610;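 active means mean replicate inhibition score of at least 50 and every replicate individually at or above 50; inconclusive means only one of the two criteria met; inactive means mean below 50 and not all replicates reaching 50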;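 further: 0% = plate neutral controls and 100% = maraviroc near 300 nM; one replicate is shown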
# MT1-MMP act inh RFP = recorded beside MT1-MMP act inh, whose call it bears; RFP signal change, %; measured here: RFP expression control read;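 0 = vehicle wells; hits needed this value within 50% of zero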
# Numbers without * were called inactive; i = inactive; ? = inconclusive; . = not tested or not shown; & = joins results of further samples.
SMILES,UUG fidelity,Rce1 inh,CSC inhib,eIF4H inh,PABP polyA inh,MT1-MMP act inh,MT1-MMP act inh RFP,Env fusion inh
CCCc1ccc(S(=O)(=O)N/N=C(/C)c2ccc3c(c2)OCO3)cc1,-6,i,-1,-6,-14,3,5,-2
COCCn1nnnc1CN(CCc1ccccc1)Cc1cc2ccc(C)cc2[nH]c1=O,20,i,-12,-5,0,10,3,.
Cc1cccc(N(C(=O)c2csnn2)C(C(=O)NC(C)(C)C)c2cccs2)c1 (configuration not stated),-17,i,10,7,-5,1,2,.
COC(=O)c1cc(COC(=O)c2nc3nccc(C)n3n2)oc1C,.,i,-10,1,26,2,2,4
C(=C\c1ccccc1)/CN1CCN(C(c2cc3ccccc3o2)c2nnnn2-c2ccc3c(c2)OCCO3)CC1 (configuration not stated),-20,.,.,.,.,-4,-11,29
C=CCn1c(SC)nnc1-c1ccc2ncccc2c1,-2,i,-7,4,-4,-1,0,-4
C[C@H](CO)N1C[C@H](C)[C@H](CN(C)S(=O)(=O)c2ccccc2F)OCc2cnnn2CCCC1=O,-3&-12&0,.,.,.,.,2,4,14
CCn1nnnc1-c1ccc(OC)c(S(=O)(=O)NCCc2ccccc2)c1,-1,i,-17,3,-3,-1,0,-11
O=C(Nc1ccc(NC(=O)C2CCCCC2)nc1)c1cccc(F)c1,-15,i,.,3,2,2,-1,-11
Cc1ccccc1C(=O)NC(NC(=S)Nc1ccc(S(N)(=O)=O)cc1)C(Cl)(Cl)Cl (configuration not stated),-5,i,.,-4,-6,3,0,0
Cc1c(Cl)cccc1NC(=O)CN1CCC(NC(=O)C2CCCCC2)CC1,-20,i,-8,-6,0,5,-8,.
CC(C)N(Cc1cn(C)nc1-c1cccc(Cl)c1)Cc1nccn1C,8,i,7,5,4,-4,-7,0
COC(=O)C(C)Oc1ccc(-c2nccc(-c3ccccn3)n2)cc1 (configuration not stated),-22,i,-14,-8,-2,0,0,-3
CC(NC(=O)c1cc2c(s1)CS(=O)(=O)C2)c1ccccc1 (configuration not stated),-7,i,2,7,5,1,4,-8
O=C(Nc1cccc2ccccc12)c1csc(COCCO)n1,-3,.,.,.,.,1,-3,-1
N#Cc1cc2c(nc1SCC(=O)Nc1sc3c(c1C#N)CCC3)CCCCC2,11,i,.,15,4,-6,-6,-1
CC(=O)N/C(=C\c1ccc(Cl)cc1)C(=O)O,7,i,-12,2,11,3,2,-4
CC(C)CCC(=O)N1CCC(N2CCC(C(=O)NCc3ccccn3)CC2)CC1,0,i,-13,28,15,-2,5,7
COc1ccc(CNC(=O)Cn2cc([N+](=O)[O-])cn2)cc1,-4,i,-10,.,.,3,1,0
COc1cc2[nH]c(=S)nc(NCc3cccnc3)c2cc1OC,-12,i,2,-2,5,5,3,9

# Compounds shown so far with an aryl thioether with sulfur outside any ring:
SMILES,UUG fidelity,Rce1 inh,CSC inhib,eIF4H inh,PABP polyA inh,MT1-MMP act inh,MT1-MMP act inh RFP,Env fusion inh
C=CCn1c(SC)nnc1-c1ccc2ncccc2c1,-2,i,-7,4,-4,-1,0,-4
N#Cc1cc2c(nc1SCC(=O)Nc1sc3c(c1C#N)CCC3)CCCCC2,11,i,.,15,4,-6,-6,-1

# (list continues)
SMILES,UUG fidelity,Rce1 inh,CSC inhib,eIF4H inh,PABP polyA inh,MT1-MMP act inh,MT1-MMP act inh RFP,Env fusion inh
COCCNc1oc(-c2ccccc2Cl)nc1S(=O)(=O)c1ccc(C)cc1,-14,.,3,.,.,1,0,2
CCN1C(=O)C(CC(=O)Nc2ccc(OC)cc2)N(CCN2CCOCC2)C1=S (configuration not stated),-8,i,-3,7,-3,4,2,-4
CCOc1cc(C(=O)CCC(=O)OCC(=O)Nc2ccc(C)c(S(=O)(=O)N(C)C)c2)ccc1O,16,i,-15,-2,-4,1,1,13
Cc1occc1C(=O)Nc1cc(=O)n(C)c(=O)n1C,3,i,0,11,12,-10,9,11
CCOC(=O)CCSc1nnc(-c2cccnc2)n1-c1ccccc1OC,-3,i,-9,-3,14,-1,-1,1
COc1ccc(N(C)C(=O)CC2(CC(=O)O)CCCCC2)cc1,8,i,-13,-6,25,6,3,.
COc1ccc(N2C(=O)NC(NS(=O)(=O)c3ccc(NC(C)=O)cc3)(C(F)(F)F)C2=O)cc1 (configuration not stated),-2,i,-5,0,-6,0,4,-6
CC1(C)CC(C(=O)Nc2ccccc2)C(=O)O1 (configuration not stated),-11,i,6,.,.,7,-1,4
COC(=O)c1ccc(Sc2ccccc2NS(=O)(=O)c2ccc(OC)cc2)nc1,-46,i,-6,6,1,-2,1,-39
CN(C)c1nc(N)nc(CSc2nnnn2-c2ccc(F)cc2)n1,-7,i,.,0,1,-4,1,.
COc1ccc(OCC(O)CNC(=O)c2ccccc2C(=O)O)cc1 (configuration not stated),-10,i,5,-5,16,-8,-4,-101
CC(C)(C)P(=O)(CO)c1ccccc1 (configuration not stated),-6,i,-14,-8,1,-3,3,-11
Nc1cc(=O)nc2cn[nH]n12,-9,.,.,.,.,-3,4,0
O=C(CNC(=O)COc1ccccc1)NCc1ccccc1F,.,i,.,-3,-4,4,4,2
COc1ccc(S(=O)(=O)N(C)CC(=O)N2CCN(C)CC2)cc1C,-3,i,-19,-1,5,1,6,-24
Cn1c(CNC(=O)c2ccco2)nnc1SCC(=O)N1c2ccccc2Sc2ccccc21,-13,i,-2,-10,36,1,1,.
Cc1ccc(N/C(CSC(N)=O)=N\S(=O)(=O)c2ccc(C)cc2)cc1,-1,i,-5,-11,8,2,1,-39
Cc1ccc(N(CC(=O)NCc2ccccc2)C(=O)CCC(=O)Nc2ccccn2)cc1,-10,i,-16,-3,4,-3,-3,0
Cc1ccccc1-c1ccc(C(=O)Nc2cccc(F)c2)o1,-20,i,-5,1,10,0,-5,21
CC(C)c1nc(SCC(=O)Nc2ccc(C(=O)O)cc2)c2c3c(sc2n1)CCCC3,-8,i,13,-22,30,5,6,6
Cc1cc(OCCN2CC(C)OC(C)C2)ccc1[N+](=O)[O-] (configuration not stated),-18,i,4,-7,-2,7,-1,.
CC(=O)N1CCc2cc(S(=O)(=O)NCCN3CCC(C)CC3)ccc21,-15,i,-5,5,-7,6,5,25
CC(=O)c1cccc(N(CC(=O)N2CCCC2)S(C)(=O)=O)c1,-32,i,-5,-5,-2,4,3,.
COC(=O)[C@@]12CCCN1[C@H](c1ccc(-c3ccc(Cl)c(Cl)c3)c(OC)c1)[C@H]1C(=O)N(C)C(=O)[C@H]12,8,.,.,.,.,3,-8,-1
CC(C(=O)NC1CCCc2ccccc21)N1CCN(c2ccc(F)cc2)CC1 (configuration not stated),-29,i,-6,7,1,-1,-2,.
Cc1cccc(NC(=O)CSc2nnc(CNC(=O)c3ccco3)o2)c1C,-12,i,-11,-5,8,3,8,1
CCS(=O)(=O)N1CCN(C(=O)c2cccc(OC)c2)CC1,-8,i,-4,-5,12,0,2,-21
COc1ccc(NC(=O)CS(=O)c2ccccc2Cl)cc1 (configuration not stated),-11,i,15,-1,0,-1,4,-1
COc1ccc(Cc2nnc(NS(=O)(=O)c3ccc([N+](=O)[O-])cc3)s2)cc1,-16,i,.,-1,4,-3,-2,-46
COc1cccc(NC(=S)Nc2cccc3ccccc23)c1,7,i,39,?,46,0,5,-21
COC(=O)CN1C(=S)N(C)C(=O)C1CC(=O)Nc1ccccc1 (configuration not stated),-11,i,-1,-3,10,3,4,.
O=C(O)CN1CCN(Cc2ccccc2Cl)C1=O,1,i,-4,.,.,2,3,-41
CC(C)CNC(=O)C1(C)CCCCCN1Cc1ccccc1-c1ccccc1 (configuration not stated),-8,.,.,.,.,-9,-10,0
CCOC(=O)N1CCN(C(=O)CN(C2CCCCC2)S(=O)(=O)c2ccc(F)cc2)CC1,.,i,0,3,14,5,2,-33
Cc1ccc(-c2nn(-c3ccccc3)cc2CSC(=N)N)cc1,.,i,34,6,-11,-3,-2,.
c1ccn(-c2ccc(N3CCOCC3)cc2)c1,-19,i,-17,6,-7,4,-1,.
O=[N+]([O-])c1cccc(/C=C/c2nc3ccc([N+](=O)[O-])cc3[nH]2)c1,-22,i,26,2,-10,8,-13,.
CCN1CCC(=NNC(=O)c2ccco2)CC1,-16,i,-10,8,1,-1,-1,-156
CN1C(C(=O)NCc2cccc(C(F)(F)F)c2)CC2Cn3c(nc4cc5ccccc5cc43)C21 (configuration not stated),-9,i,5,-5,0,3,-10,11
COC(=O)CSc1ncnc2c1cnn2Cc1ccccc1,-11,i,-18,0,-8,4,3,.

# Profiles, looked up by structure.
# COc1cccc(NC(=S)Nc2cccc3ccccc23)c1 across the screens: UUG fidelity: 7; Rce1 inh: i; CSC inhib: 39; eIF4H inh: ?; PABP polyA inh: 46; MT1-MMP act inh: 0; MT1-MMP act inh RFP: 5; Env fusion inh: -21
# CC(C(=O)NC1CCCc2ccccc21)N1CCN(c2ccc(F)cc2)CC1 (configuration not stated) across the screens: UUG fidelity: -29; Rce1 inh: i; CSC inhib: -6; eIF4H inh: 7; PABP polyA inh: 1; MT1-MMP act inh: -1; MT1-MMP act inh RFP: -2; Env fusion inh: .
# COC(=O)[C@@]12CCCN1[C@H](c1ccc(-c3ccc(Cl)c(Cl)c3)c(OC)c1)[C@H]1C(=O)N(C)C(=O)[C@H]12 across the screens: UUG fidelity: 8; Rce1 inh: .; CSC inhib: .; eIF4H inh: .; PABP polyA inh: .; MT1-MMP act inh: 3; MT1-MMP act inh RFP: -8; Env fusion inh: -1

# (continued)
SMILES,UUG fidelity,Rce1 inh,CSC inhib,eIF4H inh,PABP polyA inh,MT1-MMP act inh,MT1-MMP act inh RFP,Env fusion inh
N#Cc1c(-c2ccccc2)nc(-c2cccnc2)[nH]c1=O,-2,i,-4,-13,1,-1,5,-17
CCc1ccccc1NC(=O)N1C2CCCC1CC(NC(C)=O)C2 (configuration not stated),-16,i,.,-4,-1,1,0,1
O=C(Nc1ccc2oc(-c3ccncc3)nc2c1)c1ccc([N+](=O)[O-])o1,-11,i,.,20,-4,-6,-18,-427
Cc1occc1C(=O)Nc1sc2c(c1C(N)=O)CCC(C(C)(C)C)C2 (configuration not stated),-19,i,16,4,-2,6,4,-13
